# PABP polyA inh: PABP-poly(A) binding inhibition | P11940 | PABP-poly(A) RNA binding, fluorescence polarization | inhibition, % at 35 µM | 290,000 tested, 1% active;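 active = 50% or more with normal probe brightness, or confirmed in later tests; about a fifth of its hits are not listed in these tables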;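 note: calls also rest on retests at 20 µM and on dose response follow-up; controls were probe without protein and protein plus probe with vehicle; some compounds called inactive have numbers as strong as hits; many hits fall short of the cut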
# Rce1 inh: inhibitors of yeast Ras-converting enzyme; yeast membranes, quenched prenylated peptide cleavage fluorescence; calls only; 290,000 tested, 0.27% active; AID 2563;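 active = fall in fluorescence gain of 50% or more versus controls, with final raw signal at or below 3038400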;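 note: plate controls were neutral control wells for no effect and wells lacking membranes for full effect; tested at 10 µM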
# Target sequence (Q03530 whole entry, looked up): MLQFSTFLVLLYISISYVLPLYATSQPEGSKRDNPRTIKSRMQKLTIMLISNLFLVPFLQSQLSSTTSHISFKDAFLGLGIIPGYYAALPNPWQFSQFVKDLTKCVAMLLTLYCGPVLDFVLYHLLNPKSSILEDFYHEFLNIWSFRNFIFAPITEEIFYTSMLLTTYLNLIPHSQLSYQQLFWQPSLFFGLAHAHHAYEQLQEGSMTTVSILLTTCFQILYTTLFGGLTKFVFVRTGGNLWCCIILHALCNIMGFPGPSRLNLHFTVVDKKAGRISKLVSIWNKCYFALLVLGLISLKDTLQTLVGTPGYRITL
# MT1-MMP act inh: MT1-MMP (human) activation inhibition. P50281. HT1080 RFP-PRO-GFP cells, GFP/RFP ratio fluorescence, overnight; percent of plate control window, DMSO zero. GFP/RFP ratio change, % at 20 µM. 360,000 tested, 0.061% active. AID 651647;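 active = GFP/RFP ratio change of at least 30% with cell ATP level not reduced by more than half and red fluorescence within 50% of control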; note: strong numbers were not always called active
#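 Assay system – RFP-PRO-GFP reporter HT1080 cells · Compound dosing – single dose of 20 µM compound, 1% DMSO final · Incubation – overnight compound exposure at 37 °C · Measure – GFP/RFP fluorescence ratio · Benchmarks – DMSO wells and RFP-L50D-GFP cells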
# Env fusion inh: inhibitors of HIV Env-mediated cell fusion; inhibition, % at 12.3 µM; HeLa-JRFL Env/CEM21 cell fusion, luciferase; AID 651610; 360,000 tested, 1.1% active;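 active = mean replicate inhibition score of at least 50 and every replicate individually at or above 50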;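 note: 0% = plate neutral controls and 100% = maraviroc near 300 nM; one replicate is shown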
# CSC inhib: cancer stem cell inhibition; cancer stem cell-like cells viability, luminescence; inhibition, % at 7.5 µM; 300,000 tested, 1.1% active; AID 2717;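 active = mean at 75% or more and at least half the replicates too; tested in HMLE shEcad cells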;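 note: 0% = median of negative and 100% = median of positive control wells; the first replicate is given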
# Yeast UUG start: yeast start codon fidelity modulation | activity score, % at 18.7 µM | S. cerevisiae UUG-firefly luciferase reporter, luminescence/redox ratio | 350,000 tested, 0.13% active;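 active = replicate mean at a twofold rise or more, about +100% in these data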;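 note: firefly luciferase made from a UUG start codon reports start codon fidelity; reporter light over untreated wells divided by growth signal over untreated wells; some hits fall short of that in this replicate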
# eIF4H inh: inhibitors of RNA binding by human eIF4H | AID 2012 | Q15056 | inhibition, % at 35 µM | 290,000 tested, 0.94% active | eIF4H fluorescence polarization binding assay;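 active = 50% or more with normal probe brightness, or confirmed in later tests; about a fifth of its hits are not listed in these tables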;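 note: calls also rest on retests at 20 µM and on dose response follow-up; 0% = protein and probe with vehicle and 100% = probe without protein; strong numbers were not always called active; many hits fall short of the cut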
# MT1-MMP act inh RFP: second read-out of MT1-MMP act inh, no call of its own (marks repeat the call); RFP signal change, %; measured here: RFP expression control read;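 0 = vehicle wells; hits needed this value within 50% of zero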
# The depositor's hits bear a star; i = inactive; / = no result given. This is a subset; rates above refer to the full screens.
# Below each SMILES – Yeast UUG start | Rce1 inh | Env fusion inh | MT1-MMP act inh | CSC inhib | PABP polyA inh | eIF4H inh | MT1-MMP act inh RFP
1. Cc1ccccc1C(O)c1cccnc1 (stereo not given)
→ / | i | 7 | 2 | 5 | 1 | 0 | 7
2. Nn1c(SCC(=O)NC2CCCC2)nnc1C(F)(F)F
→ -8 | / | -5 | -2 | / | / | / | 1
3. O=C(CCCN1C(=O)/C(=C/c2ccccc2Cl)SC1=S)NCCCN1CCOCC1
→ -19 | i | 23 | 3 | 23 | -18 | -9 | 2
4. Cc1ccc(C)c(Nc2cc(C)nc3ncnn23)c1
→ -7 | i | -15 | 3 | -4 | -4 | -6 | 2
5. Cc1cc(NC(=O)CSc2nccn2-c2ccc(Cl)cc2)no1
→ -15 | i | / | 1 | -4 | 16 | -6 | -2
6. N#Cc1c[nH]n2c(=O)c3c(nc12)CCCC3
→ / | i | / | / | -6 | -3 | -10 | /
7. CC(=O)c1cccc(OCC(=O)N(C)CC(=O)Nc2ccc(F)cc2)c1
→ / | i | 1 | / | 8 | -6 | -3 | /
8. CCOc1ccccc1N1CCN(Cc2c(C)n(C)n(-c3ccccc3)c2=O)CC1
→ / | i | / | 0 | -6 | 3 | 4 | 2
9. COc1cc(S(=O)(=O)N2CCN=C2c2ccccc2)c(OC)cc1Cl
→ -7 | i | -7 | 4 | 2 | 3 | -1 | 5
10. CCCC(C)n1[nH]c(=O)cc1N (stereo not given)
→ -8 | i | / | 8 | -5 | 2 | 2 | -1

# The results go on.
# Below each SMILES – Yeast UUG start | Rce1 inh | Env fusion inh | MT1-MMP act inh | CSC inhib | PABP polyA inh | eIF4H inh | MT1-MMP act inh RFP
11. CCOc1cccc(/C=C2/NC(=O)N(CC(=O)Nc3cccc(C)c3)C2=O)c1O
→ -13 | i | 5 | / | -2 | -4 | 2 | /
12. CC(C)C[C@@]12C(=O)N(c3cccc(Br)c3)C(=O)N1[C@H](c1ccc(F)cc1)[C@@H]1C(=O)N(C3CCCCC3)C(=O)[C@@H]12
→ 7 | i | 104* | -11 | 13 | / | / | -12
13. Cc1ccc(C(=O)O)cc1N1C(=O)CCCC1=O
→ / | i | -10 | -2 | -8 | -2 | -2 | 4
14. Cc1cccc(C)c1OCC(=O)Nn1c(COc2ccccc2)nc2ccccc2c1=O
→ / | i | -67 | -6 | -47 | 26 | -9 | -2
15. FC(F)(F)c1ccc(CN2C[C@@H]3C(c4ccc(C(F)(F)F)cc4)C4(c5cccnc5)CC3(C4)[C@H]2c2ccccc2)cc1 (stereo not given in full)
→ -16 | i | -8 | -7 | 42 | 3 | -13 | -26
16. CCOC(=O)c1sc(NC(=O)CCSC)nc1C
→ -3 | i | -1 | 2 | -5 | -3 | 2 | 4
17. CN(C#N)c1nc(N2CCOCC2)nc(N2CCOCC2)n1
→ -2 | i | -13 | 4 | / | / | / | 1
18. C/C(=N\NC(=O)CN1CCN(c2ccc(F)cc2)CC1)c1ccco1
→ / | i | 5 | -2 | 9 | / | / | -1
19. O=C(/C=C/c1cccc([N+](=O)[O-])c1)c1ccco1
→ -16 | / | -176 | 6 | 7 | -4 | -2 | 4
20. Cc1ccc(S(=O)(=O)NCc2ccccc2)cc1C(=O)N1CC(C)CC(C)C1 (stereo not given)
→ 5 | i | 25 | -6 | -9 | / | / | -13

# Following part:
# Below each SMILES – Yeast UUG start | Rce1 inh | Env fusion inh | MT1-MMP act inh | CSC inhib | PABP polyA inh | eIF4H inh | MT1-MMP act inh RFP
21. CCn1c(SCC(=O)Nc2ccccc2OC)nc(O)cc1=O
→ -22 | i | -1 | 0 | -9 | 13 | 6 | 1
22. Cc1onc(-c2ccccc2)c1C(=O)Nc1ccc2c(c1)OCCO2
→ -14 | i | / | 2 | -15 | 2 | 4 | 2
23. CCOC(=O)c1ccc2c(c1)nc(-c1ccc(F)cc1)c1nccn12
→ -15 | / | 2 | -5 | 0 | 4 | -6 | 0
24. N#Cc1c2c(c(-c3ccccc3)[nH]c1=O)CCCC2
→ 1 | i | / | 4 | / | -2 | 2 | 2
25. Cc1cccc(-n2nc(C(=O)Nc3ccccc3)n3c(=O)cc(-c4ccccc4)nc23)c1
→ -20 | i | / | -2 | 0 | -2 | 3 | -1
26. O=C(NC1CC2CCCC(C1)N2S(=O)(=O)c1ccccc1)c1ccccc1 (stereo not given)
→ 1 | i | -28 | 10 | -7 | -14 | 1 | -2
27. Nc1ccn([C@@H]2O[C@H](CNCc3ccc(Oc4cc(-n5cccn5)ncn4)cc3)[C@@H](O)[C@H]2O)c(=O)n1
→ -16 | / | 21 | 1 | / | / | / | 2
28. COc1ccc(C(CNS(=O)(=O)c2ccc(C)cc2)N2CCN(C)CC2)cc1 (stereo not given)
→ -14 | i | 11 | -3 | / | / | / | 4
29. CCn1c(COc2cccc3cccnc23)nnc1SCC(=O)OC
→ / | i | 2 | 3 | -6 | -8 | 2 | 1
30. O=C(O)/C=C/c1cn(Cc2ccccc2)nc1-c1ccc(Cl)cc1
→ -8 | i | -14 | 7 | 4 | -6 | 4 | 10
31. O=C(CSc1nnc(-c2ccncc2)o1)NCc1ccccc1
→ / | / | 2 | 2 | 3 | -4 | 1 | 4
32. COc1ccc(N2CCCC2)c(NC(=O)COc2ccccc2)c1
→ -11 | i | 3 | -3 | -5 | 4 | -5 | -2
33. O=C(O)CN(Cc1ccccc1)S(=O)(=O)c1ccc2c(c1)OCCO2
→ / | i | -15 | -2 | -6 | 4 | -6 | -3

# Part of the list above, reformatted:
1. Cc1ccccc1C(O)c1cccnc1 (stereo not given)
  Yeast UUG start = / | Rce1 inh = i | Env fusion inh = 7 | MT1-MMP act inh = 2 | CSC inhib = 5 | PABP polyA inh = 1 | eIF4H inh = 0 | MT1-MMP act inh RFP = 7

2. Nn1c(SCC(=O)NC2CCCC2)nnc1C(F)(F)F
  Yeast UUG start = -8 | Rce1 inh = / | Env fusion inh = -5 | MT1-MMP act inh = -2 | CSC inhib = / | PABP polyA inh = / | eIF4H inh = / | MT1-MMP act inh RFP = 1

3. O=C(CCCN1C(=O)/C(=C/c2ccccc2Cl)SC1=S)NCCCN1CCOCC1
  Yeast UUG start = -19 | Rce1 inh = i | Env fusion inh = 23 | MT1-MMP act inh = 3 | CSC inhib = 23 | PABP polyA inh = -18 | eIF4H inh = -9 | MT1-MMP act inh RFP = 2

4. Cc1ccc(C)c(Nc2cc(C)nc3ncnn23)c1
  Yeast UUG start = -7 | Rce1 inh = i | Env fusion inh = -15 | MT1-MMP act inh = 3 | CSC inhib = -4 | PABP polyA inh = -4 | eIF4H inh = -6 | MT1-MMP act inh RFP = 2

# Part of the list above in order of heavy-atom count, lowest first:
# Below each SMILES – Yeast UUG start | Rce1 inh | Env fusion inh | MT1-MMP act inh | CSC inhib | PABP polyA inh | eIF4H inh | MT1-MMP act inh RFP
4. Cc1ccc(C)c(Nc2cc(C)nc3ncnn23)c1
→ -7 | i | -15 | 3 | -4 | -4 | -6 | 2
17. CN(C#N)c1nc(N2CCOCC2)nc(N2CCOCC2)n1
→ -2 | i | -13 | 4 | / | / | / | 1
3. O=C(CCCN1C(=O)/C(=C/c2ccccc2Cl)SC1=S)NCCCN1CCOCC1
→ -19 | i | 23 | 3 | 23 | -18 | -9 | 2

# Assay outcomes deposited in PubChem BioAssay by several laboratories.
